Compound activity: PubChem BioAssay, several laboratories
ugtP null kill = growth inhibition of ugtP-null S. aureus, primary screen, RN4220 ugtP deletion, OD600 | 16 h; some inactives read as strong as hits | growth inhibition, % (test concentration not listed) | actives 0.54% (n = 330,000);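 active = z-score under -3 and OD600 up to 0.15 on both plates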;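 also: plate controls were untreated wells for no effect and antibiotic for full effect; wells of about 80 µL received 100 nL stock; the first replicate is given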
BJeLR viability = MLPCN primary cell-based screen for lethality selective to Ras in HRASV12 cells; BJeLR (HRASV12) viability, CellTiter-Glo ATP luminescence, 48 h; reference of the scale not given here; inhibition, % (no concentration beside the values); actives 0.17% (n = 300,000);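 active = replicate mean above 50%; inconclusive = above 50% but judged a plate artefact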;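 also: 50 nL library stock added to about 25 µL; numbers are from one replicate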
PrP 5UTR inh = inhibition of PrP 5' UTR reporter expression; cell-based PrP 5' UTR mRNA reporter, plate reader; inhibition, % (no concentration beside the values); actives 0.35% (n = 340,000); AID 488862, 2010;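 active = every replicate at 50% or more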;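 also: 0 = median of the neutral control wells; tested in H4 reporter cells; numbers are from one replicate; inactives centre near -14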
Sa RN4220 lethal = growth inhibition of S. aureus RN4220, primary screen, OD600 | 16 h | inhibition, % (concentration not given with the values) | actives 0.33% (n = 330,000) | AID 1259311, 2017;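 active = z-score of -3 or lower and OD600 up to 0.18 on both plates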;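 also: plate controls were untreated cells for no effect and reference antibiotic for full effect; stock transfer was 100 nL into about 80 µL; one replicate is shown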
Autofluor counter = flagged as autofluorescent in microsphere protease counterscreen. compound autofluorescence counterscreen, microsphere flow cytometry; stronger effect = higher value. actives 3.1% (n = 360,000). fluorescence intensity (concentration not given with the values);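 active = at least 3 SD above the mean of all compounds, about 16000 in these data; inconclusive = too few beads counted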;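 also: 100 nL of 1 mM stock went into each well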
Mtb hypoxia inh = PubChem AID 1159583. actives 0.1% (n = 300,000). fluorescence inhibition, % (no concentration beside the values). M. tuberculosis hypoxia-regulated fluorescent reporter, fluorescence;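 active = 35 to 45% if threefold the growth effect, above 45% if 1.5-fold the growth effect; inactive = the rest, general growth blockers included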;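 also: wells of about 50 µL received 100 nL stock; 0% = vehicle wells and 100% = reference inhibitor wells; whole bacteria with a GFP reporter of the hypoxia response; strong numbers were not always called active; many hits fall short of the cut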
Mtb hypoxia inh growth = second read-out of Mtb hypoxia inh, no call of its own (marks repeat the call); growth inhibition, %; measured here: M. tuberculosis growth (absorbance);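 0% = vehicle and 100% = reference antibiotic; read after six days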
* marks the source's active call; other numbers are inactive results; ? = inconclusive; . = not tested or not shown. Rows were taken by chance; overall some 4.1% were active at least once.

SMILES	ugtP null kill	BJeLR viability	PrP 5UTR inh	Sa RN4220 lethal	Autofluor counter	Mtb hypoxia inh	Mtb hypoxia inh growth
COc1ccc2c(C)cc(SCC(=O)Nc3ncc(Cl)cc3Cl)nc2c1	-16	-1	0	7.6	2080	8	4
CC(C)NC(=O)c1onc(CSc2ccccc2)c1C(=O)O	2	-8	9	0.9	4119	-3	1
NC(=O)C1CCN(C(=O)/C=C/c2cc(Br)ccc2F)CC1	1	-15	-31	-1.8	4592	4	-1
CCOC(=O)C1=C(COC(=O)c2cc(S(=O)(=O)N3CCOCC3)ccc2F)NC(=O)NC1C (stereo unspecified)	10	.	-3	4.8	5166	11	11
CCOC(=O)c1ccc(N=NN(C)C)cc1	-4	1	-83	-0.2	4355	1	12
O=C(c1ccco1)N1CCN(C(=O)c2cccn3c(=O)c4c5c(sc4nc23)CCCC5)CC1	17	.	-13	4.4	4670	-12	0
CCOC(=O)c1c(NC(=O)COC(=O)c2cc(OC)c(OC)cc2[N+](=O)[O-])sc(C)c1CC	1	4	7	8.0	6703	-4	-6
COc1ccc(OC)c(/C=N/NC(=O)c2cc[n+](CC(=O)c3ccccc3)cc2)c1	.	-8	-17	.	6529	.	.
COc1ccc(-n2cc(CNCCc3ncc(C)[nH]3)c(-c3ccccc3Cl)n2)cc1	0	7	-19	2.0	4918	2	-1
Cc1ccc(N/C(N)=N/c2nc(CSc3nnc(N)s3)cc(=O)[nH]2)cc1	4	-6	-5	2.6	4135	-11	0
CCCn1c(SCC(=O)NC2CCCCC2)nnc1-c1cccnc1	5	3	-19	1.4	5084	2	2
O=C(CCc1nc2ccccc2c(=O)[nH]1)OCC(=O)N1CCN(S(=O)(=O)c2ccccc2)CC1	0	1	-10	-1.0	2396	1	4
Cc1cc(OCC(=O)Nc2cnn(CCCC(=O)O)c2)ccc1[N+](=O)[O-]	3	5	9	8.6	4371	7	0
O=[N+]([O-])c1ccc(Cl)c(S(=O)(=O)/N=C(/Nc2cccnc2)c2ccccc2)c1	4	.	-20	6.2	4118	3	4
Cc1ccccc1C(=O)Nc1cccc(NC(=O)Cn2cnc3c(=O)n(C)c(=O)n(C)c32)c1	7	-16	-32	0.8	11429	9	7
CSc1ccccc1NC(=O)Cc1ccccc1[N+](=O)[O-]	12	.	-8	6.7	3261	10	7
O=C(CN(c1ccccc1)S(=O)(=O)c1ccc(F)cc1)NCc1cccs1	3	.	-8	2.4	3903	-5	6
Cc1ccnc(NC(=O)CCC(=O)N(CC(=O)NC2CCCCC2)CC2CCCO2)c1 (stereo unspecified)	1	-5	-5	1.3	2411	.	.
CN(CC(=O)NC1CCCCC1)S(=O)(=O)c1ccc(Br)s1	-3	1	-5	7.1	2410	.	.
Cc1cc(C)n(-c2cc(N3CCN(C(=O)c4ccccc4C)CC3)ccc2[N+](=O)[O-])n1	6	3	-2	3.8	3136	.	.
CC(C)(C)n1nc2c(c1NC(=O)c1ccc([N+](=O)[O-])cc1)CS(=O)(=O)C2	4	-7	-10	2.8	5898	1	-2
CCOc1cc(C=NNC(=O)Cc2ccccc2)ccc1OCC(=O)Nc1ccc(C)c(C)c1	-15	.	.	-12	.	-5	-7
CCOc1cc(N2CCOCC2)c(OCC)cc1NCC(=O)N1CCN(Cc2ccccc2)CC1	12	15	-1	4.9	.	14	6
O=C(Nc1ccccc1C(=O)N1CCCCCC1)c1ccccc1	10	0	-13	5.9	6359	9	9
COc1cccc(OCC(O)CO)c1 (stereo unspecified)	-1	-10	4	-1.2	5830	2	9
CC(=O)c1ccc(NC(=O)CCc2nnc3ccc(N4CCCC4)nn23)cc1	5	-7	-40	2.2	4257	6	-1
O=C(CN1CC=C(c2ccccc2)CC1)Nc1cc(Cl)ccc1Cl	14	0	-3	-4.1	4103	5	9
O=C(NN=Cc1cc(Cl)cc([N+](=O)[O-])c1O)c1ccccc1NS(=O)(=O)c1cccs1	2	.	.	19	.	18	9
CCCCn1c(N)c(N(CCOC)C(=O)COC(=O)COc2cc(C)c(Cl)cc2C(C)C)c(=O)[nH]c1=O	0	-11	-31	-1.6	?	7	0
Cc1c(C(C)CC(C)O)oc(=O)c2c1Oc1c(C)c(C(C)CC(C)O)oc(=O)c1C2 (stereo unspecified)	3	.	.	5.0	.	18	5

Brought forward from above: six entries, followed by the next part.
SMILES	ugtP null kill	BJeLR viability	PrP 5UTR inh	Sa RN4220 lethal	Autofluor counter	Mtb hypoxia inh	Mtb hypoxia inh growth
COc1cccc(OCC(O)CO)c1 (stereo unspecified)	-1	-10	4	-1.2	5830	2	9
CC(=O)c1ccc(NC(=O)CCc2nnc3ccc(N4CCCC4)nn23)cc1	5	-7	-40	2.2	4257	6	-1
O=C(CN1CC=C(c2ccccc2)CC1)Nc1cc(Cl)ccc1Cl	14	0	-3	-4.1	4103	5	9
O=C(NN=Cc1cc(Cl)cc([N+](=O)[O-])c1O)c1ccccc1NS(=O)(=O)c1cccs1	2	.	.	19	.	18	9
CCCCn1c(N)c(N(CCOC)C(=O)COC(=O)COc2cc(C)c(Cl)cc2C(C)C)c(=O)[nH]c1=O	0	-11	-31	-1.6	?	7	0
Cc1c(C(C)CC(C)O)oc(=O)c2c1Oc1c(C)c(C(C)CC(C)O)oc(=O)c1C2 (stereo unspecified)	3	.	.	5.0	.	18	5
C/C(=N\Nc1nc2ccccc2s1)c1ccc2c(c1)OCO2	.	-6	-36	.	3593	.	.
COc1ccc2c(c1OC)C(=O)N1C2SC[C@H]1C(=O)NCCC(C)C (stereo partly specified)	1	3	-3	-3.9	2919	-9	-9
CCN(CC)C(=O)C1CCCN(Cc2cccc(Oc3ccccc3)c2)C1 (stereo unspecified)	14	-11	1	2.5	6083	5	3
NC(=O)c1ccccc1NC(=O)CSC1=NCCS1	5	-16	-26	1.8	5278	11	3
Cc1[nH]nc(SCC(=O)NCCc2ccccc2)c1[N+](=O)[O-]	.	-11	-24	.	4372	.	.
CC(CCc1ccc2c(c1)OCO2)=N/N=C1/NC(=O)CC(C(=O)Nc2ccccc2)S1 (stereo unspecified)	-3	.	.	3.3	.	-3	4
O=C(NCc1ccco1)C(c1ccccc1)N(C(=O)Cc1cccs1)c1ccccc1F (stereo unspecified)	-9	-5	-25	5.4	4160	2	3
O=C(NCc1ccccc1F)C1CCC(=O)N(Cc2ccc(Cl)cc2)C1 (stereo unspecified)	5	7	8	-2.0	4502	5	9
O=C1CN(C(=O)Cn2ncc(Cl)c(Cl)c2=O)c2ccccc2N1	-7	17	-15	2.5	4342	-8	-2
Cc1cc(NC(=O)c2ccc3c(c2)C(=O)N(C)C3=O)no1	-2	21	-23	0.1	8325	3	-1
CC(C)CNc1nc(N)c([N+](=O)[O-])c(NCc2ccccc2)n1	7	-1	-9	4.2	2816	9	-8
CN1CCc2c(n(CC(O)CNCc3ccccc3)c3ccccc23)C1=O (stereo unspecified)	2	-2	-13	2.8	2540	12	11
Nn1c(SCc2ccc(Br)cc2)nnc1-c1cccnc1	-2	9	-18	-3.3	.	-6	1
COc1ccc2nc(NC(=O)C3CCCO3)sc2c1 (stereo unspecified)	-1	3	-44	0.4	4576	0	5
Cc1cccc(-n2ncc3c2CCCC3NC(=O)c2ccc[n+]([O-])c2)c1C (stereo unspecified)	7	16	-10	3.0	5981	9	11
Cc1ccc(-n2c(O)c(C=NCc3ccco3)c(=O)[nH]c2=S)cc1C	-2	0	-20	-2.4	4245	-3	9
CCCCOC(=O)Nc1nnc(-c2ccccc2OC)s1	-1	-8	-10	3.7	2841	14	14
Cc1ccc(Cl)cc1NC(=O)CCC(=O)O	3	-11	-5	3.3	4190	1	2
CCC(CC)c1nc(C#N)c(NC(C)c2ccccc2)o1 (stereo unspecified)	5	-2	-4	6.9	2480	7	10
COC(=O)c1ccc(C=NNc2nc(N3CCCCC3)nc(N3CCCCC3)n2)cc1	-4	.	.	8.8	.	8	-3
O=C(N/N=C/c1ccc(OC(=O)c2ccccc2)cc1)c1ccc(CN2CCOCC2)cc1	.	-4	-12	.	3739	.	.
O=C(CN1CCC(C(O)(c2ccccc2)c2ccccc2)CC1)Nc1ccccc1	1	-21	-14	0.9	13306	2	6
Cc1cccc(C)c1-n1c(C)nn(CCOc2ccccc2)c1=O	8	-19	0	15	4090	7	7
O=C(CN1C(=O)COc2ccccc21)NCCN1CCCC1	1	-1	-5	0.2	10914	5	-2
COc1ccc(C2CC(c3ccc(Br)cc3)=NN2C(=O)CN2CCCC2)cc1 (stereo unspecified)	-5	-1	-19	4.7	6409	15	15
c1ccc(Cc2nnc3sc(-c4ccco4)nn23)cc1	4	-11	-21	-1.5	6226	.	.
Cc1ccc2c(NC(=O)c3ccc(Br)o3)cccc2n1	1	7	-28	2.0	4295	5	-8
CC(=O)Nc1ccc(S(=O)(=O)NCCC(=O)OCC(=O)NNC(=O)c2ccccc2)cc1	8	-2	-11	1.9	5150	0	-3
COc1cccc2c1CCC1=CC(=O)CCC12C (stereo unspecified)	-1	.	-6	3.0	2853	2	2
O=C(NC1CCc2ccccc21)c1cc(COc2c(F)cccc2F)on1 (stereo unspecified)	-1	-6	0	13	4526	2	0
CC12CCC(=O)N1C(C(=O)NCCc1ccccc1)CS2 (stereo unspecified)	0	-1	-25	1.7	5825	3	2
COc1ccc2oc(C(=O)OCC(=O)NC(=O)c3ccccc3)c(C)c2c1	2	6	-21	2.2	5768	-3	-4
CC(C(=O)N1CCOCC1)(c1ccccc1)c1ccccc1	9	11	-11	8.7	7737	8	3
CC(C)CN(C(=O)COC(=O)c1ccccn1)c1c(N)n(Cc2ccccc2)c(=O)[nH]c1=O	3	8	-7	0.5	5661	-9	-3
Cc1c(NS(=O)(=O)c2cc(C(=O)NCc3cccnc3)ccc2Cl)c(=O)n(-c2ccccc2)n1C	-5	.	-11	4.1	3982	19	8
O=C(NCc1ccco1)c1cc2cc(Br)ccc2o1	6	-1	-33	-3.2	6059	12	14
CCCc1ccc2oc(C(=O)N3CCC(C(N)=O)(N4CCCCC4)CC3)c(C)c2c1	2	5	-17	0.2	5150	11	7
COc1ccc(/C=N/N2CCN(c3ccccc3OC)CC2)cc1Br	.	-2	-38	.	2971	.	.
Fc1ccc(C2=NNC(=NCc3ccccc3)SC2)cc1F	-5	.	-29	-4.2	4620	-3	13
CCOC(=O)N1CCN(CC(=O)Nc2cc(OCC)ccc2OCC)CC1	0	.	-13	4.2	4433	.	.
CC(=O)OCC(=O)[C@@]1(O)CCC2C3CCC4=CC(=O)C=C[C@]4(C)[C@@]3(Cl)C(Cl)C[C@@]21C (stereo partly specified)	-3	.	.	8.5	.	3	4
O=C(NC1CCCCC1)C(c1ccccn1)N(C(=O)c1csnn1)C1CCCCC1 (stereo unspecified)	4	0	-22	1.5	3517	3	0
O=C(NC(NC(=S)N1CCOCC1)C(Cl)(Cl)Cl)c1ccc(Cl)cc1 (stereo unspecified)	-13	-10	-21	-3.5	2318	2	1
O=[N+]([O-])c1ccccc1N/N=C\c1ccccc1Cl	.	72*	-129	.	2411	.	.
CSc1nnc(-c2cccc(NC(=O)c3ccccc3)c2)n1C	2	8	.	4.1	6015	19	10

Some values from the list.
Under Mtb hypoxia inh, Cc1c(NS(=O)(=O)c2cc(C(=O)NCc3cccnc3)ccc2Cl)c(=O)n(-c2ccccc2)n1C shows 19
Under BJeLR viability, COc1ccc2oc(C(=O)OCC(=O)NC(=O)c3ccccc3)c(C)c2c1 shows 6

Additional compounds follow.
SMILES	ugtP null kill	BJeLR viability	PrP 5UTR inh	Sa RN4220 lethal	Autofluor counter	Mtb hypoxia inh	Mtb hypoxia inh growth
Cc1nc(-c2ccccc2)cn(O)c1=O	10	2	-6	6.5	1980	-8	-5
Cc1ccc(-n2c3c(c(=O)[nH]c2=O)C(C(F)(F)F)(C(F)(F)F)NC(=O)N3)cc1	-5	-6	-10	-3.8	16132*	-6	-1
CC(C)(C)OC(=O)N1CCC[C@H]1C(=O)N/N=C/c1cccc2cccnc12	.	-4	-15	.	6425	.	.
c1ccc(-c2nnc(-c3ccccn3)c(-c3ccccn3)n2)nc1	2	-3	.	0.6	5994	-14	-11
O=C(COC(=O)c1cncc(Br)c1)Nc1ccc2c(c1)OCO2	5	6	-31	1.6	2255	-15	3
CC(=O)Nc1ccc(NC(=O)C(C)OC(=O)c2cccc(S(=O)(=O)N3CCCCCC3)c2)cc1 (stereo unspecified)	.	-6	1	.	4467	.	.
O=C(NCc1ccccc1Cl)NCc1ccccc1Cl	3	8	-25	3.0	4890	-8	3
